gsp agonist: agonists of gsp mutant (McCune-Albright syndrome); gsp mutant cells, cAMP HTRF, 30 min; control for the full effect not named in the record; Potency, µM (doses to about 76.9 µM), for inactives: at the highest dose activation (cAMP increase), most hits filed as activators; hit rate 0.13% among 340,000; active = well fitted activation curve with a large enough effect; inconclusive = small, poorly fitted or top-dose-only effect, or another doubt; inactive = no such curve, though single readings can be large or run the other way; cell line not stated here;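 note: phosphodiesterase inhibitor Ro 20-1724 added with compounds to block cAMP breakdown; potency is the fitted concentration of half-maximal effect; nearly all actives have a fitted effect of over 60% in size; about a fifth of the inactives were tested at one dose only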
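Cells in DMEM/10% FBS with G418 were pretreated with compounds in DMSO plus […] (300 uM stock) for 30 min at 37C. cAMP was measured by HTRF (cAMP-d2 plus anti-cAMP antibody-K) after 30 min at room temperature.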
D2 PAM: potentiates the human D2 dopamine receptor allosterically. AID 624464. P14416. DiscoveRx D2 beta-arrestin cells, luminescence, 90 min; 100% = 57 uM dopamine signal. hit rate 0.23% among 360,000. potentiation, % (test concentration not listed); active = potentiation of 50% or more; inconclusive = 30% to 50%; inactive = 30% or less;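 note: compound concentration not given in the record; tested on top of an EC20 dose of dopamine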
Target sequence (P14416 whole entry, looked up): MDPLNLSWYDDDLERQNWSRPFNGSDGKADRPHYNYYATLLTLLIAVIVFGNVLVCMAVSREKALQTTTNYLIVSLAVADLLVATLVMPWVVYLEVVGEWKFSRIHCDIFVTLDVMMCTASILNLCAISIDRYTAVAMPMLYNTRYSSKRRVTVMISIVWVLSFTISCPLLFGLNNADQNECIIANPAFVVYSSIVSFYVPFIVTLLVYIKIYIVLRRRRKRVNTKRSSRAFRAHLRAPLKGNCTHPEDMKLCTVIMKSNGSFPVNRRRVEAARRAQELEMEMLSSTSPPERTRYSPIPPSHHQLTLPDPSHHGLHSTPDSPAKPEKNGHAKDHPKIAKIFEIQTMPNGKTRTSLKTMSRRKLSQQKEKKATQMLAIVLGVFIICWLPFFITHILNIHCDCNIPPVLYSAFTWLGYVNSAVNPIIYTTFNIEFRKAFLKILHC
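PathHunter D2 cells, attached overnight at 37 deg C, received compound in DMSO plus dopamine at EC20 (50 nM final) for 90 min at 37 deg C. Beta-arrestin recruitment was read as luminescence after 1 h with detection reagent at ambient temperature.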
Menin MLL FP FL: displaces fluorescein MLL peptide from human menin | Fluorescence polarization, fluorescein-MLL peptide displacement from menin | FP activity change, % at 61.4 µM | 290,000 tested, under 10 active | AID 1766; inconclusive = falling polarisation curve, or a change in total fluorescence; inactive = total fluorescence flat and polarisation flat or rising; no compound was filed as active; the % refers to the polarisation; negative = inhibition;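 note: % of control where 0% means no effect; inhibitors lower the polarisation; unlabelled MLL peptide was the positive control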
ClpP mod: qHTS Assay for Activators of ClpP | hit rate 1.9% among 340,000 | Potency, µM (doses to about 57.5 µM), for the others: at the top dose activity change, negative = active | ATP-dependent Clp protease proteolytic subunit (Bacillus subtilis (strain 168)), P80244 | purified B. subtilis ClpP, FRET peptide cleavage, 20 min; active = well fitted falling curve with a large enough effect; inconclusive = small, poorly fitted or top-dose-only effect; inactive = no such curve, though single readings can be large or run the other way; note: potency is the fitted concentration of half-maximal effect; the source files actives as falling curves though it sought activators and does not explain the sign; nearly all actives have a fitted effect of over 65% in size; many hits overshoot -100%
Target sequence (P80244 whole entry, looked up): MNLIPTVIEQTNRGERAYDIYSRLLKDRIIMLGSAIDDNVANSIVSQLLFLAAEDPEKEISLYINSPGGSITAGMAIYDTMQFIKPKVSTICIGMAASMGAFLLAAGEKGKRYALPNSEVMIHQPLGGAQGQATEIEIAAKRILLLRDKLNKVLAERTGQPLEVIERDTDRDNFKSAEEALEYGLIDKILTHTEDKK
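Purified B. subtilis ClpP, 10 microg/mL final in Tris/HCl pH8 with KCl, BSA, glycerol and Tween-20, cleaved an Abz/nitrotyrosine-quenched decapeptide. Fluorescence (ex 320, em 430) was read at 0 and 20 min at room temperature. Delta was normalized to 5.8 microM ADEP and DMSO/no-enzyme controls.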
TRPV1 PAM: human TRPV1 potentiation | TRPV1-expressing cells, Fluo-8 calcium influx, capsaicin EC20 potentiation; host cell line not named in the record; control for the full effect not named in the record | potentiation, % at 8.33 µM | hit rate 0.02% among 320,000 | AID 540277; active means potentiation above 80%; inconclusive means 30% to 80%; inactive means below 30%; note: 0% is about no effect
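Fluo-8 calcium influx in TRPV1-expressing cells, kinetic read (ex 480/em 520 nm). Compound added and read 3 min for agonist activity, followed by capsaicin at EC20 final and 2 min further read for enhancement.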
gsp antagonist: antagonizes gsp, the McCune-Albright syndrome mutation; AID 624288; Potency, µM (titrated, usually from 76.9 µM), inactives show at the top dose activity change, negative = inhibition, usual class: inhibitors; hit rate 0.4% among 340,000; gsp-mutant cells, cAMP HTRF, 30 min; control for the full effect not named in the record; active = falling curve of any shape with a large fitted effect; inconclusive = falling curve, mostly with a smaller effect; inactive = flat or rising curve; cell line not stated here;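 note: intracellular cAMP measured with PDE inhibitor Ro 20-1724 present during compound exposure; potency is the fitted concentration of half-maximal effect; % is set by controls: 0 for no effect and ±100 for the full control effect; nearly all actives have a fitted effect of over 65% in size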
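HTRF cAMP measurement after 30 min RT detection following 30 min, 37C compound treatment alongside […] (added as 300 uM solution) in G418-selected cells seeded at 2000/well and grown 16–24 h.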
Sfp inh: blocks B. subtilis Sfp PPTase activity; Q9F4F7; Biochemical Sfp PPTase activity, qHTS; hit rate 3.5% among 310,000; Potency, µM, inactives show max response, negative = inhibition, usual class: inhibitors; active = well fitted inhibition curve with a large enough effect; inconclusive = small, poorly fitted or top-dose-only effect, or another doubt; inactive = no such curve, though single readings can be large or run the other way;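 note: the enzyme is Sfp with the accession as filed and its product quenches rhodamine fluorescence; potency is the fitted concentration of half-maximal effect; 0% = enzyme reaction without inhibitor and -100% = no enzyme wells; top concentration of the series not given in the record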
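Step 1, compound plus 15 nM Sfp-PPTase, 15 min, room temperature. Step 2, add rhodamine-CoA (5 uM) and BHQ-2-YbbR (12.5 uM). Step 3, read 525/598 nm fluorescence at 0 and 30 min.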
* = called active by the depositor; ? = inconclusive; . = no result given; & = joins results of further samples; [ ] = remark or other dose.

1. Cc1[nH]c(-c2ccco2)nc1C(=O)O
2. COc1ccc2[nH]c(C(=O)N(C)Cc3ccccc3)c(C)c2c1
3. O=C(O)/C=C/C(=O)NCc1csc2ccccc12
4. Cc1sc(NC(=O)c2cc3ccccc3oc2=O)c(C(=O)OC(C)C)c1-c1ccccc1
5. CC(C)c1c(C(=O)N/N=C2\CCc3ccccc32)nnn1-c1nonc1N
6. CCOc1ccc(C2=Nn3c(CC)nnc3SC2)cc1
screen / no. | 1 | 2 | 3 | 4 | 5 | 6
gsp agonist | -4% | ? | ? | ? | ? | -21%
D2 PAM | 0 | -8 | -16 | -12 | -1 | -4
Menin MLL FP FL | 3.0 | ? | 6.5 | 6.7 | . | .
ClpP mod | -21% | -19% | -2.2% | 1.2% | -4.6% | 0.7%
TRPV1 PAM | -3 | 1 | 4 | -10 | -8 | -23
gsp antagonist | 9% | -4% | -2% | 15% | 2% | -11%
Sfp inh | 79µM* | -2% | -1% | -6% | 10% | .

7. NNc1ccc2c(C(F)(F)F)cc(C(F)(F)F)nc2n1
8. O=C(COC(=O)c1ccccc1)NCc1cccs1
9. COCCCNC(=O)/C=C/c1cccc(Cl)c1
10. COc1ccccc1NC(=O)N1CCCC1C(=O)NCc1cccs1 (stereo not given)
11. COc1ccc(OC)c(NC(=O)c2cc(-c3cc(C)c(C)cc3O)n[nH]2)c1
12. CSCCC(NC(=O)c1ccccc1)C(=O)OCC(=O)c1ccc[nH]1 (stereo not given)
screen / no. | 7 | 8 | 9 | 10 | 11 | 12
gsp agonist | 26% | -83%[inhibitor] | 0% | -8%[15.4 µM] | -9%[15.4 µM] | -7%[15.4 µM]
D2 PAM | -3 | -6 | -2 | -11 | -1 | 0
Menin MLL FP FL | 1.1 | -0.8 | 0.9 | -4.0 | -2.0 | 6.0
ClpP mod | . | -1.0% | 1.2% | . | 0.9% | -1.5%
TRPV1 PAM | 7 | 9 | 1 | -2 | -1 | 15
gsp antagonist | -6% | -6% | 0% | 11% | -34% | -9%
Sfp inh | 56µM* | -15% | 8% | 21% | 11% | -19%

13. C=CCNC(=O)C(=O)N/N=C/c1ccco1
14. CC(=O)c1c(C)oc2ccc(N(C(=O)c3ccncc3)S(=O)(=O)c3ccccc3)cc12
15. Cc1nn(C(C)C(=O)NC2CCC(C)CC2)c(=O)c2nn(-c3ccccc3)c(C)c12 (stereo not given)
16. COC(=O)c1ccc(-c2ccco2)n1Cc1nc(-c2ccc(OC)c(OC)c2)oc1C
17. O=[N+]([O-])c1cccnc1Sc1ccc(Br)cc1
18. CCn1cc(C(=O)NCCCOC(C)C)c(=O)c2cc(S(=O)(=O)N3CCCC3)ccc21
screen / no. | 13 | 14 | 15 | 16 | 17 | 18
gsp agonist | -31%[inhibitor] | -3%[15.4 µM] | -35%[inhibitor] | -4% | -10%[15.4 µM] | 13%
D2 PAM | -17 | 1 | -20 | -2 | 2 | -7
Menin MLL FP FL | 2.3 | -3.3 | . | 12 | . | 2.8
ClpP mod | ? | . | -2.7% | ? | . | -4.0%
TRPV1 PAM | -2 | 2 | -3 | -12 | . | -13
gsp antagonist | 11% | -22% | -11% | -13% | -14% | -20%
Sfp inh | 6% | 12% | 12% | 20µM* | . | 1%

19. O=C(Nc1cccc(C(F)(F)F)c1)OCCN1CCN(Cc2ccccc2)CCC1=O
20. O=C1c2ccc3c4c(ccc(c24)C(=O)N1c1ccc(O)cc1)C(=O)N(c1ccc(O)cc1)C3=O
21. O=C(CN1CCN(C(=O)c2ccco2)CC1)Nc1cccc([N+](=O)[O-])c1
22. COc1ccc(CC(=O)Nc2sccc2C#N)cc1S(=O)(=O)N1CCOCC1
23. CCS(=O)(=O)N1CCC(C(=O)NCc2ccc(OC)cc2)CC1
24. Cc1cccc(NC(=O)CNCC(=O)Nc2cccc(C)c2C)c1C
screen / no. | 19 | 20 | 21 | 22 | 23 | 24
gsp agonist | . | -4%[15.4 µM] | 18%[15.4 µM] | 9%[15.4 µM] | 6% | -15%
D2 PAM | -9 | ? | 0 | -8 | -9 | -4
Menin MLL FP FL | -0.7&5.2 | -4.6 | -0.4 | . | -4.4 | -8.6
ClpP mod | -0.7% | . | . | 6.0% | . | 1.1%
TRPV1 PAM | -11 | 1 | -13 | ? | 9 | -13
gsp antagonist | -2% | 7% | -48% | 10% | 8% | -6%
Sfp inh | 20%&10% | 15% | 2% | . | 9% | 10%

Structures listed above marked active in Sfp inh:
entry	molecule	gsp agonist	D2 PAM	Menin MLL FP FL	Sfp inh
1	Cc1[nH]c(-c2ccco2)nc1C(=O)O	-4%	0	3.0	79µM*
7	NNc1ccc2c(C(F)(F)F)cc(C(F)(F)F)nc2n1	26%	-3	1.1	56µM*
16	COC(=O)c1ccc(-c2ccco2)n1Cc1nc(-c2ccc(OC)c(OC)c2)oc1C	-4%	-2	12	20µM*

Continued:
25. CCOCCCNC(=O)C(NC(=O)Cc1cccs1)c1ccc(OC)cc1 (stereo not given)
26. O=C(NNC(=O)c1cccc(S(=O)(=O)Nc2ccc(Cl)cc2)c1)c1ccc(=O)[nH]c1
27. Cc1ccc([C@H]2C[C@H](O)[C@@H](n3cc(COC(=O)c4ccccc4)nn3)CN2C(=O)c2cccs2)cc1
28. CN(C)c1nc2c(N)ncnc2n1[C@H]1O[C@@H](CO)[C@H](O)[C@@H]1O
29. CCCCn1c(N)c(N(CCC(C)C)C(=O)c2ccc(C)c(S(=O)(=O)N3CCOCC3)c2)c(=O)[nH]c1=O
30. CCCCCC(=O)NC(Cc1ccc(OC)c([N+](=O)[O-])c1)C(=O)O (stereo not given)
screen / no. | 25 | 26 | 27 | 28 | 29 | 30
gsp agonist | 6%[15.4 µM] | -2% | -14% | 11%[15.4 µM] | ? | 12%
D2 PAM | 9 | -2 | -9 | -8 | 2 | -4
Menin MLL FP FL | -1.9 | . | . | 1.9 | . | 3.6
ClpP mod | . | 1.7% | -3.4% | . | -0.4% | 1.3%
TRPV1 PAM | 7 | -7 | . | -11 | -16 | 0
gsp antagonist | 7% | 26% | . | 8% | 4% | 10%
Sfp inh | 28% | . | . | 14% | . | -2%

31. COC(=O)C1CC(c2ccc(Cl)cc2)=NO1 (stereo not given)
32. O=C(CN1CCN(S(=O)(=O)c2ccc3c(c2)OCCCO3)CC1)N1CCc2ccccc21
33. CCCCN(C)C(=O)c1ccc2c(c1)N(CC)C(=O)c1ccccc1S2=O (stereo not given)
34. CC(=O)Nc1ccc(S(=O)(=O)N(C)c2ccc(OCC(=O)OCC(=O)Nc3ccc(OC(F)F)cc3)cc2)cc1
35. Cn1nnnc1SCc1nc2ccccc2[nH]1
36. C/C(=N\NC(=O)CNC(=O)C(c1ccccc1)c1ccccc1)c1ccccc1
screen / no. | 31 | 32 | 33 | 34 | 35 | 36
gsp agonist | -24% | -48%[inhibitor] | -58%[inhibitor] | 0%[15.4 µM] | 9% | 5%
D2 PAM | -2 | -16 | -19 | 3 | -12 | 8
Menin MLL FP FL | 1.8 | . | 3.6 | 18 | 3.5 | 2.6
ClpP mod | . | -4.2% | 0.0% | . | -1.3% | 0.7%
TRPV1 PAM | -11 | . | 1 | 6 | 1 | -34
gsp antagonist | -14% | . | 3% | -15% | 6% | 9%
Sfp inh | 11% | . | 7% | 31%[activator] | 13% | 24%

Three of the entries above in order of their number in gsp agonist, low to high.
No.	mol	gsp agonist
1	Cc1[nH]c(-c2ccco2)nc1C(=O)O	-4%
9	COCCCNC(=O)/C=C/c1cccc(Cl)c1	0%
18	CCn1cc(C(=O)NCCCOC(C)C)c(=O)c2cc(S(=O)(=O)N3CCCC3)ccc21	13%

(further entries)
37. CN(C)S(=O)(=O)c1ccc(C(=O)OC2CCOC2=O)cc1 (stereo not given)
38. Cc1ccc(S(=O)(=O)CCC(=O)OCC(=O)NCCc2ccc(S(N)(=O)=O)cc2)cc1
39. O=C(Nc1nc2cc3c(cc2s1)OCCO3)c1cccc(S(=O)(=O)N2CCOCC2)c1
40. Cc1onc(-c2c(F)cccc2Cl)c1C(=O)NCc1ccc2c(c1)OCO2
41. CCC1(c2ccccc2)NC(=O)N(Cc2ccc(C(=O)OC)cc2)C1=O (stereo not given)
42. CCOc1ccc(NC(=O)C2C3CC/C=C\CCC32)cc1 (stereo not given)
screen / no. | 37 | 38 | 39 | 40 | 41 | 42
gsp agonist | 36% | 8% | . | -30% | -1%[15.4 µM] | 14%[15.4 µM]
D2 PAM | -5 | 4 | . | -7 | -1 | -5
Menin MLL FP FL | -5.4 | . | -0.2 | . | 1.4 | 2.2
ClpP mod | . | -0.2% | . | 28µM* | 0.5% | -1.1%
TRPV1 PAM | -7 | -5 | -18 | 7 | 5 | 2
gsp antagonist | -9% | 7% | . | -1% | 2% | 11%
Sfp inh | -9% | . | 2% | 17% | -1% | 18%

43. COc1ccc(-c2csc3ncnc(N4CCN(S(=O)(=O)c5cccc(Br)c5)CC4)c23)cc1
44. Cc1cc(C)cc(Oc2ccccc2/C=N\O)c1
45. COc1ccccc1N1CCN(C(=O)COc2ccc(C)cc2Br)CC1
46. CN(C)c1ccnc(Oc2ccc(Cl)cc2)c1C#N
screen / no. | 43 | 44 | 45 | 46
gsp agonist | -4%[15.4 µM] | 0% | -16% | 1%
D2 PAM | 8 | -36 | -34 | -8
Menin MLL FP FL | . | -1.8 | 5.9 | 1.7
ClpP mod | -4.5% | 0.7% | -5.8% | -2.6%
TRPV1 PAM | -16 | -3 | ? | -2
gsp antagonist | 0% | 9% | 0% | -22%
Sfp inh | . | -13% | 3% | -1%

Bioassay records from PubChem BioAssay.
